# VACV mCherry inh – vaccinia inhibition (mCherry reporter) | Vaccinia virus mCherry reporter infection, fluorescence; about a quarter of the inactives have no number | Potency, µM (series often up to 36.5 µM), without a hit: top-dose activity change, negative = inhibition, hits mostly inhibitors | actives 0.63% (n = 310,000) | AID 720579; active = well fitted inhibition curve with a large enough effect; inconclusive = small, poorly fitted or top-dose-only effect; inactive = no such curve, though single readings can be large or run the other way; tested in A549 cells; also: nearly all actives have a fitted effect of over 35% in size; inactives centre near -10
# VACV Venus inh – vaccinia inhibition (Venus reporter). actives 0.46% (n = 330,000). Vaccinia virus Venus reporter expression, fluorescence. Potency, µM (top dose mostly 36.5 µM), for inactives: at the highest dose activity change, negative = inhibition, actives largely listed as inhibitors; active means well fitted inhibition curve with a large enough effect; inconclusive means small, poorly fitted or top-dose-only effect; inactive means no such curve, though single readings can be large or run the other way; tested in A549 cells; also: nearly all actives have a fitted effect of over 30% in size; inactives centre near -10
# * marks the source's active call; other numbers are inactive results; i = inactive; u = inconclusive; x = no result given; [ ] = dose if it differs, or a comment. % is scaled to controls: 0 for no effect and ±100 for the full control effect; potency is read from the fitted curve at half-maximal effect.
SMILES	VACV mCherry inh	VACV Venus inh
O=S(=O)(c1ccccc1)N1CCNCC1	-10%	-4%
CC1=C(C(=O)OCCOC(C)C)C(c2cc3c(cc2Br)OCO3)C2=C(CCCC2=O)N1 (configuration not stated)	-6%	-14%
NC(=S)N=Nc1c(O)n(CCCl)c2ccc(Cl)cc12	2.2µM*	u
O=C(CCNS(=O)(=O)c1ccc2c(c1)CCN2C(=O)C1CC1)N1CCN(c2cccc(C(F)(F)F)c2)CC1	i	-3%
CC(=O)NC1=NN(C(C)=O)C(c2ccc(C(C)C)cc2)S1 (configuration not stated)	-11%	0%
Cn1c(NCCN2CCCC2)nc2cc(-c3ccccc3)sc2c1=O	i	u
CN1C(CC(=O)Nc2ccc(Cl)cc2Cl)c2ccccc2CC1(C)C (configuration not stated)	-13%	0%
O=C(CCc1ccccn1)N1CCCC(N2CCN(c3ccc(F)cc3)CC2)C1 (configuration not stated)	i	-7%
COc1cc(C2CC(=O)c3c([nH]c(C(=O)OCC4CCCCC4)c3C)C2)cc(OC)c1OC (configuration not stated)	-15%	u
CCOc1ccc(NC(=O)c2cc(F)c(F)cc2Cl)cc1OCC	-18%	-3%
Cc1ccc2nc(-c3ccc(C#N)cc3)c(Cc3ccccn3)n2c1	39%[activator]	-9%
C[C@H]1CN([C@@H](C)CO)C(=O)CCCn2cc(nn2)CO[C@@H]1CN(C)C(=O)NC1CCCCC1	48%[activator]	0%
COc1ccc(N2CCN(C(c3cccc(OC)c3OC)c3nnnn3C3CCCC3)CC2)cc1 (configuration not stated)	x	-28%
COc1cccc(NC(=O)C2CCN(S(=O)(=O)c3ccc4c(c3)N(C(C)=O)CCO4)CC2)c1	i	-16%
CCOP(=O)(OCC)C(NC(=O)Nc1ccc(Cl)c(Cl)c1)C(N)=O (configuration not stated)	-18%	-6%

# Next structures
SMILES	VACV mCherry inh	VACV Venus inh
COC(=O)c1ccc(NC(=O)CC2C(=O)N(c3ccccc3)C(=O)N2Cc2ccc(F)cc2)cc1 (configuration not stated)	-8%	-12%
COc1cc(NC(=O)c2cc([N+](=O)[O-])ccc2NC(=O)CNC2CCCCC2)cc(OC)c1	u	u
C[C@H]1CN([C@@H](C)CO)C(=O)Cc2cc(NS(=O)(=O)c3ccc(Cl)cc3)ccc2O[C@@H]1CN(C)C(=O)Nc1cccc2ccccc12	i	-2%
COc1cc(CN2c3ccc(Br)cc3C(=O)CS2(=O)=O)cc(OC)c1	-2%	-11%
O=C(Nc1ccccc1Cl)/C(Cl)=C(\Cl)S(=O)c1ccccc1 (configuration not stated)	u	10µM*
Cc1cc(Cl)c2oc(C(=O)NCCN3CCCCC3CO)c(C)c2c1 (configuration not stated)	-15%	-26%
CCCCn1c(N)c(N(CC(C)C)C(=O)CCCSc2nncs2)c(=O)[nH]c1=O	-3%	-9%
CSc1nccc(-c2cc(Cl)c3c(c2)CC(CNC(=O)c2ccc(C)nc2)O3)n1 (configuration not stated)	i	0%
O=C(NCCc1ccccc1)C1CCN(C2CCN(Cc3ccco3)CC2)CC1	-7%	-19%
CCn1c(/C=C2\C(=O)Nc3ccccc32)nc2ccccc2c1=O	-29%	-18%
C=C(C)COc1ccc(-c2ncnc(C(F)(F)F)c2-c2ccc(OC)cc2)c(O)c1	-14%	-12%
Cc1cc(C)c2c(CN3CC(C)OC(C)C3)cc(=O)oc2c1C (configuration not stated)	-11%	-7%
CCN1C[C@@]2(COC)C3[C@@H](OC)[C@H]4[C@@H]1[C@@]3(C1C[C@@]3(O)[C@H](OC(=O)c5ccccc5)C1[C@]4(OC(C)=O)[C@@H](O)[C@H]3OC)[C@@H](OC)C[C@H]2O (some centres not stated)	-15%	-12%
CCOC(=O)C1=C(C)N(C[C@@H]2CC[C@@H](Cc3ccc4cc(OC)ccc4c3)O2)C(=O)NC1c1ccccc1 (some centres not stated)	u	u
COc1ccc(NC(=O)C2CCN(S(=O)(=O)c3ccc4c(c3)NC(=O)CO4)CC2)cc1	i	-17%

# Other structures
SMILES	VACV mCherry inh	VACV Venus inh
Cc1cc(C)c(CN2CCN(C(=O)Cn3ccc(NC(=O)OCc4ccccc4)nc3=O)CC2)c(C)c1	-11%	u
COC(=O)CCNC(=O)Cn1cnc2sc3c(c2c1=O)CCCC3	-12%	-7%
Cc1ccc(-n2nc3c(N4CCC(C(=O)NCCc5ccccc5C)CC4)nnc(C)c3c2C)cc1	10µM*	13µM*
CN(/N=C/c1ccc([N+](=O)[O-])o1)c1ccccc1	-16%	0%
O=S(=O)(Nc1ccc(Cc2ccncc2)cc1)c1cccs1	i	-5%
O=C(Cc1ccc(Br)cc1)Nc1ccc2[nH]ncc2c1	-14%	-5%
CC(C)c1nnc(NC(=O)Cc2ccccc2[N+](=O)[O-])s1	-1%	-20%
O=S(=O)(Nc1ccccc1C(F)(F)F)c1ccc(N2CCCCS2(=O)=O)cc1	-13%	-2%
COc1ccc(-c2onc(C)c2C)cc1S(=O)(=O)N(C)Cc1ccccc1	-29%	-25%
CCc1ccc(NC(=O)COC(=O)/C=C/c2ccco2)cc1	-14%	-6%
CC1CCN(S(=O)(=O)c2ccc(Cl)s2)CC1	i	-7%
Cc1c(C(=O)NCc2cccc(C(F)(F)F)c2)sc(=O)n1Cc1cccc(F)c1	8%	-12%
COc1ccccc1C(=O)NC(=O)CSc1nncn1C	-9%	0%
Cc1ccc(S(=O)(=O)N2CCN(C(=O)COC(=O)Cc3cccc(C(F)(F)F)c3)CC2)c(C)c1	-20%	-11%
O=C(c1ccccc1F)N1CCN(c2cnn(-c3cccc(Cl)c3)c(=O)c2Cl)CC1	-12%	-14%

# More entries:
SMILES	VACV mCherry inh	VACV Venus inh
CCn1ncc(/C=N\NC(=O)c2csc3ccccc23)c1C	u	-24%
S=C(NCCc1ccccn1)Nc1ccc(Cl)cc1	-23%	-8%
CN(C)c1ccc(N=Nc2ccccc2C(=O)OCC(=O)N(C)C2CCCCC2)cc1	i	-20%
CC1CCC(NCC(=O)Nc2cccc(S(N)(=O)=O)c2)CC1 (configuration not stated)	-4%	-5%
COc1ccccc1/C=C/C(=O)NCC(=O)N/N=C/c1ccc(C)o1	i	-8%
Cc1nc(NC(=O)c2ccco2)sc1-c1csc(Nc2ccc(Cl)cc2)n1	7.9µM*	u
COc1ccccc1-c1cc2c(c(OC)c1)OCCN(CCC(C)c1ccc(C)o1)C2 (configuration not stated)	i	3%
O=C(CNC(=O)c1ccc(Cl)cc1)c1ccccc1	i	-13%
Cc1ccccc1CCNC(=O)c1cc2ccccn2n1	-11%	-2%
Cn1c(CN2CCN(C(=O)c3ccccc3)CC2)nc2cc([N+](=O)[O-])ccc21	-8%	-12%
CN(C)C=NC(=O)c1cc(C(=O)c2ccc(Cl)cc2)c[nH]1	-6%	-11%
CNc1nc(-c2ccccc2)[n+](-c2ccc(C)cc2)s1	-17%	-6%
CCn1cc(/C=N/O)c(C)n1	-3%	11%
O=C(Nc1ccncc1)Nc1cccc(F)c1	i	-6%
COc1cccc(CCNc2ncnc3sc(C(=O)N4CCN(C)CC4)c(C)c23)c1	-11%	-13%

# The list goes on.
SMILES	VACV mCherry inh	VACV Venus inh
Cc1cccc(N2CC(C(=O)Nc3nnc(SCC(=O)Nc4nccs4)s3)CC2=O)c1 (configuration not stated)	-10%	5%
CCOC(=O)c1cc(C#N)c(SCC(=O)O)[nH]c1=O	-15%	-17%
NS(=O)(=O)c1ccc(NC(=O)c2cnn3c2NC(=C2CC2)C=C3C(F)F)cc1	-7%	-15%
CC(C)CCNC(=O)NC(=O)CSc1nnc(-c2ccccc2Br)o1	-3%	-20%
COc1ccc(-c2noc(=O)n2Cc2ccccc2Cl)cc1	i	-12%
O=C(Nc1ccc(Nc2ccccc2)cc1)c1ccco1	-19%	-13%
O=c1oc2ccccc2n1CCn1c2ccccc2c2nc3ccccc3nc21	x	-4%
C=CCN(CC=C)C(=O)Nc1ccc2nc(C)sc2c1	i	-6%
CCOP(=O)(OCC)C(O)c1cc(OC)c(OC)c(OC)c1 (configuration not stated)	-12%	0%
O=c1[nH]nc(N/N=C/c2ccccc2OC(F)F)c(=O)[nH]1	i	7%
Cc1ccc(-n2ncc3c(=O)n(CC(=O)N(C)C)cnc32)cc1C	i	-8%
Cc1c(Cl)cccc1NC(=O)C(C)n1c(=O)cc(-c2ccccc2)c2c(C)nn(C)c21 (configuration not stated)	0%	10%
COC(=O)c1c(C)oc(C)c1S(=O)(=O)N(Cc1ccccc1)C(C)C	i	-17%
CC(CNC(=O)CC[C@H]1O[C@@H](n2cnc3c(NC(=O)c4ccccc4)ncnc32)[C@H](O)[C@@H]1O)c1ccccc1 (some centres not stated)	24%	-9%
Cc1ccc2c(c1)N(C(=O)CCC(=O)NCCN1CCOCC1)CC(C)O2 (configuration not stated)	u	-15%

# Later entries:
SMILES	VACV mCherry inh	VACV Venus inh
C=CCn1c(SCC(N)=O)nc2nc3c(cc2c1=O)COC(C)(C)C3	1%	-8%
Cc1ccc2nsnc2c1NC(=O)COc1ccccc1F	-7%	0%
O=C(CNC(=O)c1ccc(Cl)cc1)OCn1nnc2ccccc2c1=O	i	-10%
S=C(c1ccc2c(c1)OCO2)N1CCN(c2cccc(Cl)c2)CC1	u	-18%
O=C(Nc1ccc2c(c1)OCO2)c1cc(C2CCCN(C(=O)CCCc3ccccc3)C2)on1 (configuration not stated)	22%	-11%
CC(C)(C)OC(=O)N1CCC(C(=O)O)CC1	-7%	-7%
CC(Sc1nc(N)cc(=O)[nH]1)C(=O)Nc1nc2c(s1)CCCC2 (configuration not stated)	i	0%
CCOc1cc(/C=N\Nc2ccc([N+](=O)[O-])cc2)ccc1OCC(=O)Nc1ccc(C)c(C)c1	x	-1%
COCC(C)n1c(C)cc(C(=O)CSc2ncccn2)c1C (configuration not stated)	12%	6%
COc1ccc(NC(=O)c2cc(S(=O)(=O)N3CCOCC3)ccc2OC)cc1	-6%	-12%
C/C(=N\NC(=S)NC1CCCCC1)c1cccs1	-4%	-20%
Cc1nnc(N2CCOCC2)c2ccccc12	i	-18%
Cc1ccc(CCNC(=O)c2ccc(CS(=O)(=O)Cc3cccc(C)c3)o2)cc1	-16%	-14%
CN1CCN(C(c2ccccc2)c2sc3nc(-c4ccco4)nn3c2O)CC1 (configuration not stated)	-13%	-12%
Cc1cc(Cl)ccc1OCC(=O)N1CCCCC1	-2%	-2%

# Sorted by length of the SMILES (smallest number first): 4 of the compounds above
SMILES	VACV mCherry inh	VACV Venus inh
O=S(=O)(c1ccccc1)N1CCNCC1	-10%	-4%
O=c1[nH]nc(N/N=C/c2ccccc2OC(F)F)c(=O)[nH]1	i	7%
COC(=O)c1c(C)oc(C)c1S(=O)(=O)N(Cc1ccccc1)C(C)C	i	-17%
C[C@H]1CN([C@@H](C)CO)C(=O)CCCn2cc(nn2)CO[C@@H]1CN(C)C(=O)NC1CCCCC1	48%[activator]	0%

# New compounds follow
SMILES	VACV mCherry inh	VACV Venus inh
CCOc1ccc(CCNC(=O)c2c3c(nc4ccccc24)C(=O)N(C2CCCCC2)C3)cc1	i	-17%
Cc1ccc(-c2cnc(C(O)c3cccc(C)c3C)[nH]2)cc1 (configuration not stated)	i	-28%
Cc1ccc(CNC(=O)COc2cc(O)c3c(c2)OC(C)(C)CC3=O)cc1	3%	9%
O=C1c2ccccc2C(=O)N1CC(O)CN1CCOCC1 (configuration not stated)	-7%	2%
Cc1ccc(S(=O)(=O)N(CC2CO2)c2cc(Cl)ccc2Cl)cc1 (configuration not stated)	-15%	-14%
CCOc1ccc(NC(=O)CN2CCN(CC(=O)Nc3ccc4c(c3)OCCO4)CC2)cc1	x	-6%
COc1ccc2cc(C(C)c3nc4ccccc4c(=O)n3N)ccc2c1 (configuration not stated)	-10%	-4%
COc1ccc(CCNC(=O)/C(C#N)=C/c2ccc(OCC(=O)NCC3CCCO3)cc2)cc1OC (configuration not stated)	-5%	-7%
CC1CCCCN1CCn1c(=S)[nH]c2cc3c(cc2c1=O)OCO3 (configuration not stated)	i	-7%
NS(=O)(=O)c1ccc(O)c(N2C(=O)c3cccc4c(C(=O)O)ccc(c34)C2=O)c1	i	7%
CCOC(=O)c1cnc2ccc(OCC)cc2c1Nc1ccc(OCc2ccccc2Cl)cc1	i	-22%

# Of the compounds above, eleven contain a furan ring, fused or not.
SMILES	VACV mCherry inh	VACV Venus inh
Cc1cc(Cl)c2oc(C(=O)NCCN3CCCCC3CO)c(C)c2c1 (configuration not stated)	-15%	-26%
O=C(NCCc1ccccc1)C1CCN(C2CCN(Cc3ccco3)CC2)CC1	-7%	-19%
CN(/N=C/c1ccc([N+](=O)[O-])o1)c1ccccc1	-16%	0%
CCc1ccc(NC(=O)COC(=O)/C=C/c2ccco2)cc1	-14%	-6%
COc1ccccc1/C=C/C(=O)NCC(=O)N/N=C/c1ccc(C)o1	i	-8%
Cc1nc(NC(=O)c2ccco2)sc1-c1csc(Nc2ccc(Cl)cc2)n1	7.9µM*	u
COc1ccccc1-c1cc2c(c(OC)c1)OCCN(CCC(C)c1ccc(C)o1)C2 (configuration not stated)	i	3%
O=C(Nc1ccc(Nc2ccccc2)cc1)c1ccco1	-19%	-13%
COC(=O)c1c(C)oc(C)c1S(=O)(=O)N(Cc1ccccc1)C(C)C	i	-17%
Cc1ccc(CCNC(=O)c2ccc(CS(=O)(=O)Cc3cccc(C)c3)o2)cc1	-16%	-14%
CN1CCN(C(c2ccccc2)c2sc3nc(-c4ccco4)nn3c2O)CC1 (configuration not stated)	-13%	-12%
